ALDH1A1 block = inhibitors of human aldehyde dehydrogenase 1A1; Purified ALDH1A1, NADH fluorescence, propionaldehyde substrate; Potency, µM (highest dose often 75.3 µM), for inactives: at the highest dose activity, negative = inhibition, most hits filed as inhibitors; 220,000 compounds, 7.3% hits; AID 1030; active means well fitted inhibition curve with a large enough effect, not every such curve was filed as active; inconclusive means small, poorly fitted or top-dose-only effect, or another doubt; inactive means no such curve, though single readings can be large or run the other way;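 further: plate controls were no enzyme wells and a reference inhibitor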
Target sequence (P00352 whole entry, looked up): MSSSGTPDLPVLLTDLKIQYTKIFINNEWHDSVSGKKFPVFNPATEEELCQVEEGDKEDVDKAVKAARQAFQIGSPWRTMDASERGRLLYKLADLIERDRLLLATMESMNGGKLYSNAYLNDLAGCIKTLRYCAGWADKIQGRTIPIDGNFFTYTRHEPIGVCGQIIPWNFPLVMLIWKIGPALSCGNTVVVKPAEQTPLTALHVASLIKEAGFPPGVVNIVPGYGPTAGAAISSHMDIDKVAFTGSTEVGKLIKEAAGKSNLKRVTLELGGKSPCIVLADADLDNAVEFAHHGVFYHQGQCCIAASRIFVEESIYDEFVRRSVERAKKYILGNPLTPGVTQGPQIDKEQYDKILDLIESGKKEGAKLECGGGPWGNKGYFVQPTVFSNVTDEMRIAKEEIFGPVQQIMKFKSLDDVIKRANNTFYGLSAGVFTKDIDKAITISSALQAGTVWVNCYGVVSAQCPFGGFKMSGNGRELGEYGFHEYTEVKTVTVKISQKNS
SMN2 splice up = SMN2 splice variant enhancement; HEK293 SMN2-luciferase splicing reporter, luminescence, 30-36 h; Potency, µM (doses to about 46.1 µM), for inactives: at the top dose activity change, positive = activation, hits mostly activators; 210,000 compounds, 2.8% hits; AID 1458; further: % of control where 0% means no effect; nearly all actives have a fitted effect of over 55% in size
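HEK293 cells carry an SMN2 […]–luciferase reporter in which exon 7 inclusion puts luciferase in frame. Cells were plated 10-12 h before compound addition, then incubated 30-36 h at 37C. ONE-Glo luminescence was read; sodium butyrate at 4.5 mM final served as control.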
GAA glycogen mod = GAA glycogen-cleavage inhibition or activation. recombinant GAA, glycogen substrate, Amplex Red glucose oxidase fluorescence. 300,000 compounds, 0.38% hits. Potency, µM (doses to about 76.4 µM), without a hit: at the top dose activity change, negative = inhibition, usual class: inhibitors;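 further: 0% = full enzyme reaction and -100% = no-enzyme basal signal; the screen sought inhibitors and activators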
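Recombinant human enzyme (4 nM); glycogen substrate; 37 C, 40 min, pH 5.0. Readout: coupled glucose oxidase/Amplex Red fluorescence.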
GAA inh = inhibitors of human lysosomal alpha-glucosidase | Potency, µM (top dose mostly 76.9 µM), without a hit: at the highest dose activity change, negative = inhibition, usual class: inhibitors | purified human GAA, 4-MU-alpha-glucoside fluorescence | 200,000 compounds, 0.005% hits | P10253;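 further: plate controls were uninhibited enzyme wells for no effect and no-enzyme background for full effect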
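Compounds are titrated up to 77 uM against 4 nM human enzyme. Substrate 4-methylumbelliferyl-alpha-D-pyranoside (400 uM) reacts 20 min at room temperature in pH 5.0 buffer; liberated 4-methylumbelliferone is read at 440 nm.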
aGal spleen mod = inhibitors or activators of human alpha-galactosidase in spleen homogenate; human spleen homogenate, 4MU-alpha-Gal fluorescence, 40 min; Potency, µM (highest dose often 80 µM), without a hit: top-dose activity change, negative = inhibition, most hits filed as inhibitors; 240,000 compounds, 0.008% hits; AID 2107;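 further: 0% = enzyme with vehicle and -100% = no enzyme basal signal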
Target sequence (P06280 32-429 limits assumed): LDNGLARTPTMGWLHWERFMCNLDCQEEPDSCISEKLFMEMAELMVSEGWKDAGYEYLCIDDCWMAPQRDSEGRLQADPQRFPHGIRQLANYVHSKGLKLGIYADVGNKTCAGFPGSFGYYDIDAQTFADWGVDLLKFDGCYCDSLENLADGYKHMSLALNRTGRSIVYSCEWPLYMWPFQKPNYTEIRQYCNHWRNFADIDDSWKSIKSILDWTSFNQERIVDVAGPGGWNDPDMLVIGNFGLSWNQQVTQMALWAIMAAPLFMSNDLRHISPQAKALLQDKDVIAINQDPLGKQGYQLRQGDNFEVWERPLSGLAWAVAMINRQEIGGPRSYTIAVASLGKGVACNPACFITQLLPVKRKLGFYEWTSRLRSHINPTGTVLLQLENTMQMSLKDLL
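Fluorogenic readout (Ex 365/Em 440 nm) of 4-methylumbelliferone released from 1 mM 4-MU-alpha-galactoside by spleen homogenate, 40 min at 37C, pH 5.0. Data normalized to no-enzyme and enzyme controls; Hill-equation AC50 from compound titrations.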
aGlu spleen mod = lysosomal alpha-glucosidase (human) modulation | AID 2112 | human spleen homogenate, 4-MU-alpha-glucoside fluorescence | 240,000 compounds, 0.006% hits | P10253 | Potency, µM (highest dose often 79.9 µM), for the others: at the top dose activity change, negative = inhibition, actives largely listed as inhibitors;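 further: 0% = enzyme with vehicle and -100% = no enzyme basal signal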
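AC50 values come from Hill-equation fits of concentration-response data, normalized to no-enzyme and full-activity controls. Enzyme source: 1 ug human spleen homogenate; 1 mM fluorogenic 4-MU glucoside, pH 5.0 citrate buffer, 37 C, 40 min.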
Active calls of the source: *; ? = inconclusive; · = not tested or not shown; & = joins results of further samples; [ ] = dose if it differs, or a comment. Unless noted, the call rests on the fitted dose curve; in most records, active means well fitted curve in the direction sought with a large enough effect; inconclusive means small, poorly fitted or top-dose-only effect, or another doubt; inactive means no such curve, though single readings can be large; an effect the other way counts as inactive or inconclusive. Potency means the concentration at half of the fitted maximal effect. The list is partial; rates above refer to the full screens.

compound	SMN2 splice up	GAA glycogen mod	aGal spleen mod	GAA inh	aGlu spleen mod	ALDH1A1 block
COCCNC(=O)c1onc(CCl)c1C(=O)OC	9%	13%	-13%	-6%	-1%	28µM*
COc1ccc(/C=C2\N=C(C)N(c3ccc4ccccc4c3)C2=O)cc1OC	-15%	1%	7%	3%	4%	-1%
CC(=O)N1N=C(c2ccc(C)cc2)CC1c1ccc2c(c1)OCO2 (configuration not stated)	·	0%	1%	·	-7%	·
CCCCCc1ccc(-c2ccc(=O)[nH]n2)cc1	-9%	-1%	5%	9%	-1%	1%
CCC(=O)c1ccccc1OCCN1CCN(Cc2ccccc2)CC1	-12%	-9%	-4%	-4%	0%	?
O=C(O)c1ccc(/C=C(\c2nc3ccccc3[nH]2)c2nc3ccccc3s2)cc1	·	6%	2%	·	3%	·
Cc1ccc(NC(=O)N2C(=O)C3(OCCO3)c3ccccc32)cc1	?	0%	0%	3%	-3%	14%
C/C(=N\NC(=O)c1ccc(NS(=O)(=O)c2cccs2)cc1)c1ccc(C(C)(C)C)cc1	?	2%	-2%	?	1%	?
N#Cc1c(NC(=O)CN2CCCCC2)sc2c1CCC2	-16%	11%	-11%	-11%	-8%	-7%
Cn1c(SCC(=O)NC2CC2)nnc1C(F)(F)F	3%	6%	-6%	5%	-7%	5%
COc1cccc(C2C(C(=O)Nc3cccnc3)=C(C)Nc3nnnn32)c1OC (configuration not stated)	-15%	-14%	-3%	1%	-9%	?
O=C(CSc1nc(O)cc(=O)[nH]1)C1CC1	-2%	-4%	1%	3%	-3%	?
CN1C(=O)N(C)C2C1N(C)S(=O)(=O)N2C (configuration not stated)	-11%	7%	-6%	2%	-3%	4%
CN(Cc1ccco1)C(=O)Cn1nc(-c2ccc(Cl)cc2)ccc1=O	-4%	6%	-8%	-2%	6%	1%
NS(=O)(=O)c1ccc(NC(=O)CSc2nnc(COc3ccccc3Cl)n2C2CC2)cc1	8%	-3%	1%	-9%	-2%	11%

(next part)
compound	SMN2 splice up	GAA glycogen mod	aGal spleen mod	GAA inh	aGlu spleen mod	ALDH1A1 block
O=c1ccn(Cc2ccc(F)cc2)c2ccnc(C(F)(F)F)c12	-91%[inhibitor]	7%	1%	6%	3%	-12%
COc1ccc(Nc2nc(-c3ccccc3)c(C(=O)Nc3cccnc3)s2)cc1	-32%[inhibitor]	-22%	9%	-5%	2%	?
COc1ccc(S(=O)(=O)N2CCN(C(=O)[C@@H]3CCC(=O)N3C3OC(=O)c4ccccc43)CC2)cc1 (some centres not stated)	-10%	0%	1%	-5%	0%	-5%
COC(=O)CCN(C(=O)C1C2CC3CC(C2)CC1C3)c1ccccn1 (configuration not stated)	-7%	10%	2%	-3%	-3%	12%
O=C1C2C=CC=CC2=NC(=S)N1CCN1CCC(=C(c2ccc(F)cc2)c2ccc(F)cc2)CC1 (configuration not stated)	-23%	·	12%	·	-7%	-5%
Cc1cc2nc(CN(C)Cc3c(C(=O)N(C)C)nc4ccc(Cl)cn34)[nH]c2cc1C	·	1%	0%	-5%	0%	5%
COc1ccc(-c2ccc(=O)[nH]n2)cc1	-5%	5%	-16%	-2%	-6%	12%
C=CCn1c(SCC(=O)Nc2cccnc2Cl)nnc1-c1ccccc1F	-26%	9%	-10%	3%	-1%	0%
Cc1no[n+]([O-])c1COc1ccc(/C=N/n2nnnc2N)cc1	5%	-6%	0%	7%	-2%	5%
C/C(=N\NC(=O)c1ccc([N+](=O)[O-])cc1)c1c(O)cc(C)oc1=O	22%	-15%	-1%	-4%	-3%	?
O=C(N/N=C/c1ccc2c(c1)OCO2)c1ccc(NS(=O)(=O)c2cccs2)cc1	13%	-12%	2%	-2%	-8%	?
O=C(NC1(C(F)(F)F)C(=O)Nc2c1c(=O)[nH]c(=O)n2-c1ccc(F)cc1)c1cccnc1 (configuration not stated)	4%	10%	6%	?	7%	6%
CCOC(=O)CCCNC(=O)COC(=O)CCC(=O)c1ccc(F)cc1	6%	5%	-3%	-6%	-2%	6%
CCOC(=O)c1cc(C#N)c(Oc2ccccc2)nc1-c1ccccc1	-21%	-6%	5%	-8%	-7%	?
C=CCn1c(Cc2csc(N)n2)nnc1SCC(=O)Nc1ccccc1C(F)(F)F	-11%	-5%	-11%	10%	-2%	-4%

Next section
compound	SMN2 splice up	GAA glycogen mod	aGal spleen mod	GAA inh	aGlu spleen mod	ALDH1A1 block
COc1ccc(CCNC(=O)CSc2nc3[nH]ncc3c(=O)n2-c2ccc(C)c(Cl)c2)cc1OC	14%	4%	-1%	-1%	4%	7.9µM*
C=CCNc1nc(-c2ccccc2)c(C(=O)OCC)cc1C#N	-4%	-6%	6%	-1%	4%	?
CCOC(=O)/C(=N/O)C1=NC(C)(C)Cc2cc(C)c(C)cc21	·	-17%	-1%	7%	6%	2%
CCCCNC(=O)COC(=O)CCC(=O)c1ccc(F)cc1	24%	-4%	-5%	-2%	-5%	-6%
C=CCn1c(CCNC(=O)c2ccccc2F)nnc1SCC(=O)Nc1ccc(OC)cc1	4%	-14%	14%	-3%	6%	-11%
CCN1CCCC1CNS(=O)(=O)c1ccc(Cl)c(C(F)(F)F)c1 (configuration not stated)	4%	0%	11%	-2%	2%	-10%
CCCCc1c(O)nc2sc3cc(OC)ccc3n2c1=O	29%	5%	-2%	2%	-3%	4%
CC(C)C(C)(C#N)NC(=O)CSc1nnc(C(F)(F)F)n1C (configuration not stated)	?	11%	-2%	2%	-2%	-2%
CCCC(=O)NCCc1cc(OC)c(OC)cc1Br	-32%[inhibitor]	9%	4%	-3%	0%	6%
O=C1CCCCC1C(O)c1ccc(Cl)cc1 (configuration not stated)	·	2%	5%	·	6%	·
Cc1c(C=O)c2ccccn2c1C(=O)c1cccs1	-15%	-2%	2%	?	0%	?
CC(NC(=O)COC(=O)Cc1ccccc1[N+](=O)[O-])c1ccccc1 (configuration not stated)	-1%	-10%	0%	4%	-2%	6%
CC(C)N(C(=O)c1ccc2nc(-c3ccccc3)c(-c3ccccc3)nc2c1)C(C)C	9%	14%	-3%	13%	-3%	?
COC(=O)c1ccc2c(c1)N(Cc1nc(-c3cccc(C)c3)oc1C)C(=O)C1CCCN21 (configuration not stated)	10µM*	-28%	2%	-14%	-9%	?
CC(C)[C@H](NC(=O)c1ccccc1)C(=O)OCC(=O)c1ccc2c(c1)NC(=O)CO2	2%	11%	-4%	-3%	-2%	1.1µM*

(more compounds)
compound	SMN2 splice up	GAA glycogen mod	aGal spleen mod	GAA inh	aGlu spleen mod	ALDH1A1 block
CCOC(=O)C1=NN(c2ccc(OC)cc2)C2C(=O)N(c3ccccc3OC)C(=O)C12 (configuration not stated)	·	3%	-2%	·	1%	·
COc1cc2c(cc1OC)CN(C(=O)COc1ccc(C)c(C)c1)CC2	29%	-6%	7%	2%	1%	-10%
CCOC(=O)c1c(-c2ccccc2)nnn1-c1nc(OC)nc(N2CCOCC2)n1	-5%	13%	9%	1%	2%	6%
CCCCCn1ccc(=O)c2c(C(F)(F)F)nccc21	-84%[inhibitor]	6%	7%	-4%	4%	-2%
CCNC(=O)N1C(=O)C2(OCCO2)c2ccccc21	-6%	-3%	-11%	4%	-17%	-1%
COc1cc(OC)cc(C(=O)N2CCC(n3c(C)nc4cc(F)ccc43)CC2)c1	-25%	2%	-4%	1%	-1%	-3%
O=S(=O)(Nc1ccc(-c2nc3cccnc3s2)cc1)c1cccs1	?	2%	?	?	28%	?
Cc1nc2cc(F)ccc2n1C1CCN(C(=O)c2c(F)cccc2F)CC1	-81%[inhibitor]	4%	23%	?	9%	?
O=C(O)CN1C(=O)SC(Nc2ccc(Cl)cc2)C1=O (configuration not stated)	-3%	-1%	-1%	-6%	-1%	-1%
COc1cc(C)c(NC(=S)Nc2cccc(Cl)c2)cc1OC	5%	-9%	0%	1%	2%	?
COc1ccc(C2c3c(-c4cc(Cl)c(C)cc4O)n[nH]c3C(=O)N2Cc2cccnc2)cc1OC (configuration not stated)	18%	0%	1%	2%	7%	12%
O=C1N(CN2C(=O)C3(OCCO3)c3ccccc32)c2ccccc2C12OCCO2	9%	-4%	-8%	4%	-3%	?
COc1ccc(C2C(C(=O)O)c3ccccc3C(=O)N2Cc2ccco2)cc1 (configuration not stated)	·	-3%	-17%	9%	-2%	-1%
COc1ccc(S(=O)(=O)N(CCCN2CCOCC2)Cc2cccc(OC)c2OC)cc1	1%	5%	4%	-1%	4%	?
Cc1cc(C)c(C(=O)N2CCCC(CNC(=O)C3(c4ccc(Cl)cc4)CC3)C2)c(=O)[nH]1 (configuration not stated)	·	-4%	3%	12%	1%	6%

Continuation:
compound	SMN2 splice up	GAA glycogen mod	aGal spleen mod	GAA inh	aGlu spleen mod	ALDH1A1 block
O=C(c1cccc(Cl)c1)N1CCC(=O)N(C(COCc2ccccc2)Cc2ccccc2)CC1 (configuration not stated)	-4%	0%	3%	-1%	-12%	-11%
CCOC(=O)c1cc(C#N)c(N2CCCC2)nc1-c1ccccc1	-20%	-10%	2%	3%	0%	?
COc1ccccc1NC(=O)C(=O)N(c1cccnc1)C(C(=O)NC(C)(C)C)c1ccccc1 (configuration not stated)	1%	-5%	4%	7%	3%	4%
CCc1cccc2c(C(=O)COC(=O)c3nn(C)c(=O)c4ccccc34)c[nH]c12	-3%	6%	-3%	-18%	3%	?
CCOC(=O)c1cc(C#N)c(N2CCNCC2)nc1C(F)(F)F	·	5%	6%	-11%	-4%	?
Cc1sc2ncn(CC(=O)NCCCC(=O)N3CCN(c4ccccc4)CC3)c(=O)c2c1C	-23%	4%	-10%	5%	-28%	1%
COc1ccc(-c2cc(CNC(=O)CN3CCN(C)CC3)on2)cc1	18%	5%	4%	-1%	4%	?
CC(=O)CSc1nnc(C(F)(F)F)n1C	·	3%	6%	·	12%	·
O=C1C=C(NCc2ccccc2)CCC1	8%	-7%	-14%	-2%	-3%	5%
c1ccc2[nH]c(NC3=NCCC3)nc2c1	-21%	6%	6%	-9%	-6%	15%
NC(=O)C(c1ccc(Cl)cc1)c1ccc(Sc2ccc(Cl)cc2)nn1 (configuration not stated)	-35%[inhibitor]	-3%	1%	-8%	1%	0%
O=C(COC(=O)CN=C1NS(=O)(=O)c2ccccc21)Nc1ccccc1OC(F)F	2%	-3%	-7%	0%	-3%	1%
C/C(CC(=O)C(F)(F)F)=N\NC(=O)/C(C#N)=C/N(C)C	-3%	-9%	-6%	1%	3%	1%
O=C(NC1CC1)c1ccc2c3c(cccc13)CC2	25%	15%	2%	-4%	0%	?
COc1cc2c(cc1OC)CN(C(=O)CCCN1C(=O)c3ccccc3C1=O)CC2	-4%	-5%	10%	4%	7%	?

Later entries
compound	SMN2 splice up	GAA glycogen mod	aGal spleen mod	GAA inh	aGlu spleen mod	ALDH1A1 block
Nc1cccnc1-n1nc(C(F)(F)F)cc1C(F)(F)F	16%	-1%	-2%	-5%	·	-5%
CCn1c(C)nc2cc(C(=O)N/N=C(\C)c3ccc(N4CCOCC4)cc3)ccc21	12%	-12%	3%	3%	-4%	-14%
O=C(O)CN1C(=O)SC(Nc2ccc(C(=O)O)cc2)C1=O (configuration not stated)	1%	-1%	2%	2%	6%	9%
Cc1ccc(S(=O)(=O)NC2(C(F)(F)F)C(=O)Nc3c2c(=O)[nH]c(=O)n3-c2ccccc2)cc1 (configuration not stated)	7%&4%	-3%[76.3 µM]	-5%	1%	-2%	1%

Assay outcomes as filed in PubChem.
